Screening results from PubChem.
AF4-AF9 inh = MLL-AF4/AF9 protein interaction inhibition | P42568 | AlphaScreen, biotin-AF4 peptide binding to FLAG-AF9 | inhibition, % at 10 µM | 0.47% of 350,000 active | AID 651704;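 active = every replicate reaching a set inhibition limit, whatever the replicate mean, cut at about 25% in these data; inconclusive = mean inhibition reaches that limit but some replicates miss it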;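 note: 0% = plate neutral control median and 100% = total signal loss; the record names both 10 and 1 µM as test concentration; the first replicate is given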
Vif A3G = inhibitors of Vif binding to APOBEC3G peptide, primary screen, biochemical, TR-FRET, GST-Vif 1-94, biotin-A3G peptide, dose response retest (AID 1117319); 0.57% of 260,000 active; inhibition, %; hits with a dose series show IC50 in µM; TR-FRET GST-Vif / biotin-A3G peptide binding; higher % means a stronger effect; test concentration not given here; strong numbers were not always called active;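 active = above the screen mean plus three standard deviations and confirmed in dose response; inconclusive = results disagree or hit not tested in dose response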;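 note: Vif residues 1-94 fused to GST binding biotinylated APOBEC3G peptide 110-148; 0% = full assay without inhibitor and 100% = GST in place of GST-Vif; retest series ran down from 100 µM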
RanGTP-Impb inh = inhibitors of RanGTP-importin-beta interaction, primary screen, biochemical, FRET, CFP-Ran, YFP-importin-beta, homogeneous; inhibition, % (test concentration not listed); cell-free CFP-Ran/YFP-importin-beta FRET ratio; 1.1% of 300,000 active;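 active = most replicates above 15%; inconclusive = exactly half above 15%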;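 note: 0% = DMSO wells and 100% = Ran loaded with GDP instead of GTP; wells of about 40 µL received 100 nL stock; the first replicate is given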
HNF4A DNA FP = change in binding of human HNF4 alpha to DNA | P41235 | HNF4a-FITC DNA binding, fluorescence polarization, 1 h | activity change, % at 10 µM | 0.3% of 360,000 active | AID 1224865; in the data active = activity change above about 30%, passing the limit was not always enough;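 note: controls were the assay level and a saturating level of protein; the project sought stronger binding though the title names inhibitors; some compounds called inactive have numbers as strong as hits; positive values seem to mean higher polarization but the record does not say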
Target sequence (P41235 whole entry, looked up): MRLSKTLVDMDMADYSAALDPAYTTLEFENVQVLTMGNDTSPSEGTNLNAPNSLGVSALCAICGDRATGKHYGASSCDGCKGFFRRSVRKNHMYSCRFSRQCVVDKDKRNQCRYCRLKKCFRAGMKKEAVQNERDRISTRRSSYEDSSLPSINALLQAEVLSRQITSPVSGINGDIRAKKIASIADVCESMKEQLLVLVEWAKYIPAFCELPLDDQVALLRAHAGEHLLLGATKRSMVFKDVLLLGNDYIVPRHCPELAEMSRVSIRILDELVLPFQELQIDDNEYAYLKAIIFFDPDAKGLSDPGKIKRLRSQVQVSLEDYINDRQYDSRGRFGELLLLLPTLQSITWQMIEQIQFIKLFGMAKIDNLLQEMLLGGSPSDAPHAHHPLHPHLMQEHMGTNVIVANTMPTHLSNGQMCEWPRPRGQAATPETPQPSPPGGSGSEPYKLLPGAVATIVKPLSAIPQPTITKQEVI
FGF22 binding = FGF22 (human) thermal shift binding. recombinant FGF22 thermal shift, SYPRO orange fluorescence; percent of sucrose octasulfate shift, DMSO zero. calls only at 9.99 µM. 1.5% of 340,000 active;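 active = melting point raised past a set limit in the mean and every replicate; inconclusive = no clear call; three in four hits are not shown here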
Target sequence (Q9HCT0 whole entry, looked up): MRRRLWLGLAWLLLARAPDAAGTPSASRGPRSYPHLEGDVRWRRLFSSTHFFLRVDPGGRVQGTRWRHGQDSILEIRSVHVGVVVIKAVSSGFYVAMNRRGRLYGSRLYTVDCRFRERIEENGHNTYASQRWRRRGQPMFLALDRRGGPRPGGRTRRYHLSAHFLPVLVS
Ecoli growth = E. coli growth inhibition; AID 1053175; 0.21% of 330,000 active; Escherichia coli growth, OD600, 23 h; active compounds read low; OD600 absorbance (no concentration beside the values);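 active = OD600 absorbance below the run mean of sample wells minus 3.6 SD, in any replicate, cut at about 0.56 in these data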;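 note: stock transfer was 300 nL into about 60 µL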
UCH37 DUB inh = inhibitors of human deubiquitinating enzyme UCH37 | Q9Y5K5 | purified proteasome/UCH37, Ub-AMC cleavage fluorescence | inhibition, % (test concentration not listed) | 0.33% of 330,000 active;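 active = mean of two replicates above 20%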;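 note: 0% = compound-free wells with enzyme and 100% = wells lacking proteasome; stock transfer was 100 nL into about 20 µL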
Target sequence (Q9Y5K5 whole entry, looked up): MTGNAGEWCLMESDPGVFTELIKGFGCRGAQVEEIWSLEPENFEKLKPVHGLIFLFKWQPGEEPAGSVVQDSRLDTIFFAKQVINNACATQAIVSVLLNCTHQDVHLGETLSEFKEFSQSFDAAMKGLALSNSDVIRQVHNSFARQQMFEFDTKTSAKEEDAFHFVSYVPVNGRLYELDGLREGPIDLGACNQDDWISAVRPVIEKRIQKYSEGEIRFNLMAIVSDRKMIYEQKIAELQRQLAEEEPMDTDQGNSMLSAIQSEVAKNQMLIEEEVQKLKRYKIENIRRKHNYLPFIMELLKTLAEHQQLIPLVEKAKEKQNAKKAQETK
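assay system = human UCH37 enzyme supplied as purified proteasome complex | amount = proteasome at 0.15 nM in the dispensed enzyme solution | schedule = 30 min compound-proteasome preincubation then 25 min substrate reaction, room temperature | measured by = fluorescence, ex 355 nm, em 460 nm | benchmarks = no-proteasome wells (full inhibition) and compound-free wells (no inhibition)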
* marks the source's active call; other numbers are inactive results; i = inactive; ? = inconclusive; nt = not tested or not shown; + = active, no number; & = joins results of further samples. This is a subset; the hit share may differ from the screen's.

compound | AF4-AF9 inh | Vif A3G | Ecoli growth | RanGTP-Impb inh | HNF4A DNA FP | FGF22 binding | UCH37 DUB inh
CC1=C(C(=O)Nc2ccccc2)C(c2ccco2)NC(=S)N1 (centres undefined) | nt | -1% | 0.65 | -0.5 | 0.8 | nt | 1.0
CN(c1nc2c(c(=O)n(C)c(=O)n2C)n1CC(=O)c1ccccc1)C1CCCCC1 | nt | -7% | 0.78 | 1.9 | -2.6 | nt | 1.9
CNc1ncc(C(=O)c2ccc(Cl)cc2)s1 | nt | -5% | 0.65 | -0.4 | -1.0 | nt | 8.9
O=C(c1cc[n+]([O-])cc1)N1CCCC(N2CCN(c3cccc(C(F)(F)F)c3)CC2)C1 (centres undefined) | 1.7 | -1% | 0.65 | ? | -0.6 | i | 2.2
CC1(C)CC(=O)C2=C(C1)OC(N)=C(C#N)[C@@H]2c1ccccc1[N+](=O)[O-] | 2.8 | 18% | 0.69 | 49* | -100 | i | 3.4
CCn1c(SCC(=O)Nc2ccc(C(C)=O)cc2)nc2nc3c(cc2c1=O)COC(C)(C)C3 | -3.3 | -4% | 0.65 | -0.9 | 7.2 | i | -1.1
CCN(CC)C(=O)C1CCCN(Cc2ccccc2F)C1 (centres undefined) | nt | 0% | 0.72 | -1.4 | 2.3 | nt | 7.8
CCc1ccc(/C=C2\SC(=S)N(CCCC(=O)Nc3ccccn3)C2=O)cc1 | nt | 2% | 0.74 | -3.6 | 19 | nt | -0.4
CC1=CC(C)(C)N(C(=O)CSc2nnc(N)s2)c2cc(C)c(C)cc21 | nt | -2% | 0.72 | -6.5 | -0.4 | nt | 4.9
Cc1nc2c(C#N)cnn2c2c1CCN(Cc1ccccc1)N2C | 1.3 | -4% | 0.69 | -2.4 | -0.3 | i | 0.7
O=C(O)c1cc(S(=O)(=O)Nc2ccc3cn[nH]c3c2)ccc1O | -7.6 | -2% | 0.67 | nt | -1.6 | i | 8.0
Cc1ccc(NC(=O)COC(=O)C2CCN(c3ccc(C(F)(F)F)cn3)CC2)cc1 | -2.3 | -11% | 0.72 | nt | -0.5 | i | 0.8
C[C@]12CC[C@H](O)CC1=C[C@H](O)C1C2CC[C@@]2(C)C1CC[C@@]2(O)C#Cc1ccc(CN)cc1 (some centres undefined) | 2.3 | 1% | 0.66 | nt | 4.0 | i | 3.2
COc1ccc(CCN2CC(C(=O)NCc3cccc(F)c3)CCC2=O)cc1 (centres undefined) | 1.7 | nt | nt | nt | 3.0 | i | nt
N#Cc1ccccc1OCC(=O)NNC(=O)CCC1CCCC1 | -3.0 | -1% | 0.68 | nt | -2.2 | i | 0.5
Cc1nn(Cc2cccc(F)c2)c(C)c1NC(=O)c1ccc(COc2ccccc2Cl)cc1 | nt | -2% | 0.7 | ? | 4.0 | nt | 5.4
C(=C\c1ccccc1)/CN1CCN(C(CCc2ccccc2)c2nnnn2C2CCCC2)CC1 (centres undefined) | 6.8 | nt | nt | nt | -1.0 | i | nt
Cc1ccc(C)c(OCCC(=O)OCc2csc(CC(=O)Nc3ccccc3C)n2)c1 | -1.3 | 1% | 0.68 | nt | -2.8 | i | 1.9
O=C(NC1CCCC1)c1cc(-c2ccc(Cl)cc2Cl)on1 | 2.0 | nt | 0.66 | -1.3 | 1.5 | i | 4.8
CCOC(=O)c1cnn2c(C)cc(-c3ccccc3)nc12 | nt | -3% | 0.69 | -1.7 | 53* | nt | -286
O=C(CSc1ncn[nH]1)Nc1ccccc1Sc1ccc(Cl)cc1 | nt | -4% | 0.72 | -2.7 | 0.7 | nt | 0.8
CCCCNC(=O)C1(C)CCN1Cc1cccc2c(OC)cc(C(=O)OCC)cc12 (centres undefined) | 3.2 | nt | nt | nt | 1.3 | i | nt
CC(=O)Nc1ccc(S(=O)(=O)NCc2ccc(C)cc2)cc1 | nt | ? | 0.67 | -1.7 | 5.0 | nt | 3.9
COc1ccccc1-n1cc(C(=O)NCC(=O)N2CCN(c3ccccn3)CC2)c2ccccc2c1=O | 2.9 | nt | 0.69 | -2.6 | -2.0 | i | -1.6
COc1cccc(C(=O)Nc2cccc(NC(=O)c3cccs3)c2)c1 | 6.1 | nt | 0.67 | 1.8 | -0.7 | + | 6.0
Cc1nnc(NC(=O)C23CC4CC(CC(C4)C2)C3)s1 | -2.6 | -4% | 0.66 | 1.0 | 1.1 | i | 5.6
COC(=O)c1ccccc1NC(=O)Nc1cnccn1 | nt | 21% | 0.71 | -2.0 | -0.8 | nt | 0.9
Cc1ccc(C(c2ccc(C)c(C)c2)C(O)C2OC(=O)C(O)C2O)cc1C (centres undefined) | 3.2 | 10% | nt | nt | -3.1 | i | nt
O=C(CSc1nc(-c2ccco2)cc(C(F)(F)F)n1)N1CCSCC1 | nt | ? | 0.72 | 0.7 | 3.5 | nt | 2.3
N=c1c[n+](N2CCOCC2)[n-]o1 | -4.3 | 3% | nt | -0.6&-1.3 | 6.2 | i | 2.4
CSCC(=O)NS(=O)(=O)c1ccc(C)cc1 | -6.3 | -2% | 0.7 | 1.7 | -1.5 | i | -2.6
c1ccc(-c2noc(CSc3nnnn3C3CCCCC3)n2)cc1 | nt | -9% | 0.66 | 4.1 | 0.7 | nt | 2.4
COc1ccc(CCNC2CC(=O)N(N(C)C)C2=O)cc1OC (centres undefined) | -1.7 | -8% | 0.69 | -2.2 | 4.2 | i | 2.1
CCN(CC(=O)Nc1ccc(NC(C)=O)cc1)C(=O)C1(c2ccc(Cl)cc2)CCC1 | 0.4 | 6% | nt | nt | -0.5 | i | nt
Cc1ccc(C(=O)NCCc2nnc3ccc(SCC(=O)Nc4c(C)cc(C)cc4C)nn23)cc1 | nt | nt | nt | 5.7 | 0.6 | nt | 2.1
O=C(c1cc2ccccc2o1)N1CC=C(c2ccccc2)CC1 | 2.4 | 69% | 0.64 | 0.4 | 2.9 | i | 5.4
CCC(C)NS(=O)(=O)c1ccc(NC(=O)c2ccc([N+](=O)[O-])cc2Cl)cc1 (centres undefined) | 8.0 | nt | 0.64 | 2.5 | 1.2 | i | 4.4
Cc1ccc(S(=O)(=O)Nc2ccccc2C(=O)NCC2CCCO2)cc1 (centres undefined) | -1.9 | nt | 0.69 | 3.9 | nt | i | -3.5
CCOC(=O)C1CC(CN2C(=O)c3ccccc3C2=O)OC1=O (centres undefined) | -2.3 | 49% | 0.67 | nt | -2.5 | nt | 0.0
CN(C(=O)CSc1ncnc2sccc12)c1c(N)n(Cc2ccccc2)c(=O)[nH]c1=O | 9.5 | 6% | 0.71 | 1.7 | 3.2 | i | 1.7
c1ccc2[nH]c(SCc3cn4ccccc4n3)nc2c1 | 0.0 | 14% | 0.65 | ? | 1.8 | i | 3.6
CCCCn1c(N)c(N(CC)C(=O)CCc2ccccc2)c(=O)[nH]c1=O | nt | nt | 0.65 | 2.5 | 3.9 | nt | -1.5
CC1(c2ccccc2)NC(=O)N(CC(=O)Nc2ccccc2C(=O)NC2CC2)C1=O (centres undefined) | -2.0 | 4% | 0.66 | -1.4 | 4.0 | i | 1.2
Cc1cc(C)n(S(=O)(=O)c2ccc(Cl)c(Cl)c2Cl)n1 | nt | 3% | 0.71 | -4.0 | 0.7 | nt | 7.2
Cc1[nH]c2ccc(C(=O)NCCCN3CCCCC3)cc2c1C | 11 | nt | 0.7 | -4.0 | 0.9 | i | 3.6

Random excerpt: 4 records from the list
compound | AF4-AF9 inh | Vif A3G | Ecoli growth | RanGTP-Impb inh | HNF4A DNA FP | FGF22 binding | UCH37 DUB inh
Cc1ccc(C(=O)NCCc2nnc3ccc(SCC(=O)Nc4c(C)cc(C)cc4C)nn23)cc1 | nt | nt | nt | 5.7 | 0.6 | nt | 2.1
CC1(c2ccccc2)NC(=O)N(CC(=O)Nc2ccccc2C(=O)NC2CC2)C1=O (centres undefined) | -2.0 | 4% | 0.66 | -1.4 | 4.0 | i | 1.2
c1ccc(-c2noc(CSc3nnnn3C3CCCCC3)n2)cc1 | nt | -9% | 0.66 | 4.1 | 0.7 | nt | 2.4
CCCCn1c(N)c(N(CC)C(=O)CCc2ccccc2)c(=O)[nH]c1=O | nt | nt | 0.65 | 2.5 | 3.9 | nt | -1.5

Continued.
compound | AF4-AF9 inh | Vif A3G | Ecoli growth | RanGTP-Impb inh | HNF4A DNA FP | FGF22 binding | UCH37 DUB inh
O=C(CSC(=S)N1CCCC1)N1CCN(S(=O)(=O)c2cccc(F)c2)CC1 | -0.1 | -6% | 0.68 | 0.9 | -0.7 | i | 5.8
CN(C(=O)c1cn2ccccc2n1)c1c(N)n(Cc2ccccc2)c(=O)[nH]c1=O | -0.5 | -1% | 0.7 | nt | 0.7 | i | -2.1
CO[C@@H]1CN(C)C(=O)c2ccc(NC(=O)c3ccccc3F)cc2OC[C@@H](C)N(CC2CCOCC2)C[C@@H]1C | -0.7&2.9 | nt | nt | nt | 7.9 | i | nt
CCc1cccc(NC(=O)CN2C(=O)NC3(CCCCCCC3)C2=O)c1 | nt | -2% | 0.7 | 3.3 | -4.3 | nt | 2.9
CN(C)S(=O)(=O)c1cccc(NC(=O)c2ccc(N3CCOCC3)c([N+](=O)[O-])c2)c1 | 13 | 9% | 0.7 | -4.4 | 0.0 | i | -1.7
CC(C)NC(=O)N(C)C[C@@H]1Oc2c(NS(=O)(=O)c3ccccc3)cccc2C(=O)N([C@@H](C)CO)C[C@@H]1C | -2.5 | nt | nt | nt | -6.6 | i | 0.9
Cc1ccc(S(=O)(=O)NC(=O)c2cc(C)n(CCCn3ccnc3)c2C)cc1 | nt | 19% | 0.7 | 2.3 | -0.4 | nt | -0.9
COc1ccc(OC)c(NC(=O)CCN2CCN(C/C=C/c3ccccc3)CC2)c1 | 13 | nt | 0.59 | 0.6 | 3.8 | i | 0.6
O=C(c1ccco1)N1CCN(C(=O)c2cnn(-c3cccc(F)c3)c2C2CCNCC2)CC1 | 0.1 | nt | 0.69 | 0.0 | 5.1 | i | 7.1
CCC(Sc1ccc2nnc(-c3ccc(OC)c(OC)c3)n2n1)C(=O)O (centres undefined) | -22 | 4% | 0.67 | -2.8 | -4.1 | i | 3.0
Cc1occc1-c1nnc(SCC(=O)N2CCOCC2)n1CC(C)C | nt | -8% | 0.71 | -2.1 | -5.2 | nt | 5.0
C[C@H](CO)N1C[C@H](C)[C@@H](CN(C)S(=O)(=O)c2ccc(Oc3ccccc3)cc2)OCc2cnnn2CCCC1=O | -1.0&0.2&1.7 | -8% | nt | nt | -1.9 | i | nt
C=CCOc1ccc(/C=C/C(=O)OC(C)C(=O)Nc2ccc(NC(C)=O)cc2)cc1 (centres undefined) | -5.2 | -3% | 0.63 | -4.5 | -1.7 | i | 0.7
Cc1ccc(/C(O)=C2\C(=O)C(=O)N(CCN(C)C)C2c2ccccc2F)cc1 (centres undefined) | nt | 13% | 0.73 | 5.5 | 3.6 | nt | 10
COc1cc(NS(=O)(=O)c2cc3c(cc2C)NC(=O)CO3)cc(OC)c1 | -2.7 | nt | 0.79 | 0.8 | 2.4 | i | 7.9
Cc1noc(C)c1S(=O)(=O)N1CCCC(C(=O)NCc2ccccc2Cl)C1 (centres undefined) | -2.8 | -1% | 0.7 | -2.1 | -0.3 | i | 6.0
O=C(Nc1nc2c(F)cc(F)cc2s1)c1ccco1 | -5.6 | nt | 0.75 | 3.2 | 0.2 | i | 3.6
